Assay outcomes (PubChem BioAssay)
FGF22 binding: binders of human FGF22 protein, primary screen, FGF22 synaptogenesis inhibitor project, biophysical, thermal shift, single point. AID 651658, 2012. Fibroblast growth factor 22 (Homo sapiens), Q9HCT0. hit rate 1.5% among 340,000. recombinant FGF22 thermal shift, SYPRO orange fluorescence; percent of sucrose octasulfate shift, DMSO zero. calls only at 9.99 µM;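 active = melting point raised past a set limit in the mean and every replicate; three in four hits are not shown here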
Target sequence (Q9HCT0 whole entry, looked up): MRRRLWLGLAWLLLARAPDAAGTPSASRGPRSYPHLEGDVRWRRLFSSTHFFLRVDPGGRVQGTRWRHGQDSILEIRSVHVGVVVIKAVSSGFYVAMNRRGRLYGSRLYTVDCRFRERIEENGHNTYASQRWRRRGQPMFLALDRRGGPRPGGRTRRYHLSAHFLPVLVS
ALR inh: inhibitors of human ALR sulfhydryl oxidase, primary screen, biochemical, H2O2 detection, HRP-luminol luminescence, single point; FAD-linked sulfhydryl oxidase ALR (Homo sapiens), P55789; purified ALR, DTT oxidation; inhibition, % (no concentration beside the values); hit rate 3.8% among 290,000; AID 485317, 2010;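 active = mean and each replicate at 75% or more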;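 also: stock transfer was 7.5 nL into about 7.5 µL; 0% = neutral wells and 100% = wells with inactivated enzyme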
Target sequence (P55789 whole entry, looked up): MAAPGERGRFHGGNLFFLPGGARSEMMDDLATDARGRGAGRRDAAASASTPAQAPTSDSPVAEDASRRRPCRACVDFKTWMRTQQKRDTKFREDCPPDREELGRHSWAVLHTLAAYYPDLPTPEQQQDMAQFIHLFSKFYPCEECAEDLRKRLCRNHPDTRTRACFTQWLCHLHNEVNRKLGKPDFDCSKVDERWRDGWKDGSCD
HNF4A DNA FP: change in binding of human HNF4A to DNA, primary screen, biochemical, fluorescence polarization, FITC-DNA; hit rate 0.3% among 360,000; AID 1224865, 2016; 1 h; activity change, % at 10 µM; Hepatocyte nuclear factor 4-alpha (Homo sapiens), P41235; in the data active = activity change above about 30%, passing the limit was not always enough;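 also: controls were the assay level and a saturating level of protein; the project sought stronger binding though the title names inhibitors; some compounds called inactive have numbers as strong as hits; positive values seem to mean higher polarization but the record does not say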
Beta2AR agonist: beta2AR agonists driving receptor internalization, primary screen, cell-based, FAP fluorogen, flow cytometry; Am2.2-beta2AR cells; reference of the scale not given here; response, % (no concentration beside the values); hit rate 0.43% among 340,000; AID 504454, 2011;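 active = response above a set limit, near 3 SD of response in nonfluorescent compounds, cut at about 42% in these data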;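 also: stock transfer was 100 nL into about 11 µL; a reference agonist was the positive control; negative values mostly stem from fluorescent compounds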
Target sequence (P07550 whole entry, looked up): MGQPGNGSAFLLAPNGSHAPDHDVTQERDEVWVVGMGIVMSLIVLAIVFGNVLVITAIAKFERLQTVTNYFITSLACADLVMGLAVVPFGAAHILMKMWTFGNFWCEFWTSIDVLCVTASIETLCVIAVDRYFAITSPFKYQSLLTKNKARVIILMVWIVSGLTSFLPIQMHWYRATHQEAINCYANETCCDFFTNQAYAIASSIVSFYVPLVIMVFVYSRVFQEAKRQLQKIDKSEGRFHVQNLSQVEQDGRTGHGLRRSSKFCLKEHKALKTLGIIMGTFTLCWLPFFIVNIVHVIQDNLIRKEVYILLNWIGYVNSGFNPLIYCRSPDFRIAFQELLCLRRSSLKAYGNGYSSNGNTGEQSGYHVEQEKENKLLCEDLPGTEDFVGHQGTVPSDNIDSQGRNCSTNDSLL
Ecoli growth: E. coli growth inhibition, primary screen, OD600; Escherichia coli growth, 23 h; stronger effect = lower value; OD600 absorbance (no concentration beside the values); hit rate 0.21% among 330,000;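 active = OD600 absorbance below the run mean of sample wells minus 3.6 SD, in any replicate, cut at about 0.56 in these data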;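 also: stock transfer was 300 nL into about 60 µL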
LANA-H2B inh: blockers of LANA interaction with H2A/H2B – biochemical, FP readout, HTS, primary screen. cell-free LANA-H2A/H2B peptide, fluorescence polarization. inhibition, % (no concentration beside the values). hit rate 0.6% among 320,000. AID 2629, 2010; in the data active = inhibition mostly above about 10%, no sharp cut-off; inactive = mostly below about 6.7%;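 also: stock transfer was 7.5 nL into about 10 µL; 0% = median of vehicle wells and 100% = median of positive control wells; one replicate is shown; the record names a cut of 25% in any replicate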
UCH37 inh: inhibitors of human UCH37 deubiquitinase, primary screen, biochemical, Ub-AMC cleavage, fluorescence | purified proteasome/UCH37 | inhibition, % (concentration not given with the values) | hit rate 0.33% among 330,000 | AID 588478, 2011;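 active = mean of two replicates above 20%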;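 also: 0% = compound-free wells with enzyme and 100% = wells lacking proteasome; stock transfer was 100 nL into about 20 µL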
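system = Proteasome-associated human UCH37 deubiquitinase | amount = 0.15 nM proteasome as dispensed | medium = pH 7.4 Tris-HCl (50 mM) with ovalbumin, ATP-MgCl2, DTT | incubation = 30 min preincubation with enzyme, 25 min cleavage at room temperature | detection = AMC fluorescence 355/460 nm | read-out basis = percent inhibition | controls = no-proteasome and no-compound wells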
An asterisk follows results filed as active; i = inactive; · = no result given. The list is partial, so the mix of outcomes need not match the whole.

SMILES	FGF22 binding	ALR inh	HNF4A DNA FP	Beta2AR agonist	Ecoli growth	LANA-H2B inh	UCH37 inh
CCSc1nnc(SCC(=O)NC2CCCCC2)s1	i	6	-3.1	-2	0.65	·	-2.3
Cc1nc(C/C(=N\N)c2ccc(O)cc2O)cs1	i	24	2.8	3	·	-2.8	·
OCCCNc1nccc(-c2cc(Nc3cccc(Cl)c3)ncn2)n1	i	6	2.8	5	0.65	0.8	-1.7
O=[N+]([O-])c1cc(-c2nnc(Nc3ccc(O)cc3)c3ccccc23)ccc1N1CCOCC1	·	-11	0.7	11	·	6.2	·
Cc1csc(NC(=O)CSc2nncn2C)n1	·	-9	-5.0	-3	0.77	2.7	3.5
CCCCc1ncc(CN2CCC(n3nccc3NC(=O)C(OC)c3ccccc3)CC2)[nH]1 (stereo unspecified)	i	-3	-2.2	-4	0.72	1.9	1.1
Cc1ccccc1CN1CCC(CNC(=O)C2CCCN(c3ncnc4c3nc3n4CCCCC3)C2)CC1 (stereo unspecified)	i	1	3.4	-7	0.71	3.1	4.6
CSc1ccccc1NC(=O)Nc1cccc(F)c1	i	-10	2.7	14	0.68	-2.5	5.0
CC(C)NC(=O)c1nn(C)c2ccccc12	·	-2	2.0	-8	0.67	-8.9	2.0
CC1CC(=O)NN=C1c1ccc(N(C)C)c([N+](=O)[O-])c1 (stereo unspecified)	·	17	1.1	4	0.7	-1.6	15
CCN(C[C@H]1N[C@@](CC)(C(=O)OC)[C@H]2C(=O)N(C)C(=O)[C@@H]12)C(=O)NC(C)C	i	·	0.1	4	0.71	·	2.4
COc1cc(Nc2c3c(nc4ccccc24)CCCC3)cc(OC)c1OC	i	98*	4.5	-12	0.67	-0.8	4.1
c1ccc2[nH]c(NN=C3CCCCCC3)nc2c1	i	·	0.0	-14	0.66	-1.5	-1.5
CC1=C(C#N)C(NC(=O)c2ccc(Cl)cc2)(C(F)(F)F)C(=O)N1 (stereo unspecified)	i	1	1.6	7	0.69	-3.0	0.4
Cc1nonc1NC(=O)CSc1nnc(N)s1	i	-2	2.2	-1	0.72	4.2	3.5
COc1ccccc1NC(=O)OC(C)c1ccc(Cl)cc1 (stereo unspecified)	i	-4	-3.0	11	0.68	-7.1	1.5
CCOC(=O)C1=C(COC(=O)c2ccc(Cl)cc2[N+](=O)[O-])NC(=O)NC1C (stereo unspecified)	i	-7	0.6	3	0.56	-3.7	0.4
CCc1cc(=O)oc2cc(OCC(=O)NCCCN3CCCC3=O)c(Cl)cc12	i	-2	1.6	-3	0.69	2.6	-14
O=C(/C=C/c1ccc(Cl)cc1)N1CCOCC1	i	8	-0.9	12	0.69	-3.5	1.2
O=C(c1cc(-c2ccc(F)cc2)on1)N1CCCc2ccccc21	i	3	-0.7	-6	0.69	0.0	-0.7
CCn1c(SCC(=O)N2CCOCC2)nnc1-c1cccs1	·	-2	1.3	-10	0.71	1.6	-0.2
COc1ccc(C2C(C(=O)c3cccs3)=C(O)C(=O)N2c2nnc(C)s2)cc1OC (stereo unspecified)	·	0	-89	1	0.59	11	5.5
CSc1n[nH]c(NCc2ccc(C)cc2)n1	·	-4	4.5	-4	0.66	3.7	1.2
CCOc1ccccc1CN1CCNC(=O)C1CC(=O)N(C)Cc1cnccn1 (stereo unspecified)	i	-14	4.8	-7	·	-0.7	·
COc1cccc(-c2nnc(SCc3cccnc3)o2)c1	·	-8	1.1	-6	0.68	-0.4	0.2
CC(=O)NC(=S)Nc1cccc(S(=O)(=O)NC2=NCCC2)c1	·	·	-0.8	-7	0.71	·	-1.3
CCN(CC)CCNC(=O)C(=O)NCC1OCCN1S(=O)(=O)c1ccc(Cl)cc1 (stereo unspecified)	i	-11	1.1	-2	0.69	7.1	-0.4
COC(=O)COc1cccc(NS(=O)(=O)c2ccc(NC(C)=O)cc2)c1	i	-3	0.1	0	0.67	-2.0	2.1
CCC1CCCCN1C(=O)CN1C(=O)c2ccccc2S1(=O)=O (stereo unspecified)	i	-8	-1.5	-9	0.68	1.5	1.7
CCOc1ccc(S(=O)(=O)N2CCOCC2)cc1NC(=O)CCOc1ccc(C(C)(C)C)cc1	i	·	-0.4	5	0.69	·	-0.4
CCOC(=O)c1cc2c(c(-c3ccccc3)n1)[C@@H](CCO)N(S(=O)(=O)C(C)(C)C)C2	i	·	-4.5	1	0.67	·	-1.1
CCOc1ccccc1-n1c(=O)c2ccccc2c2ccccc2c1=O	i	2	-1.2	9	0.72	2.8	4.1
CCOC(=O)c1c(-c2ccccc2)oc2ccc(OCC)cc12	·	1	-0.1	0	0.69	-1.5	-141
Cc1cccc(-c2nc(CSCC(=O)NCCCN3CCOCC3)c(C)o2)c1	·	99*	-0.8	5	0.7	-2.8	-0.4
CNc1nc2c(N)ncnc2n1[C@H]1O[C@@H](CO)[C@H](O)[C@@H]1O	i	-2	-5.0	6	0.65	-2.5	2.9
Cc1ccc([C@@H]2[C@@H]3C(=O)N(C)C(=O)[C@@H]3[C@]3(Cc4ccccc4)C(=O)N(Cc4ccccc4)CC(=O)N23)o1	i	0	1.5	-1	·	1.7	4.6
Cc1ccc(OC(C)C(=O)Nc2ccccc2C(=O)NCc2cccnc2)cc1C (stereo unspecified)	i	-1	0.6	15	0.67	5.0	3.0
O=C(CN1C(=O)NC(c2ccccc2)(c2ccccc2)C1=O)NC1CCS(=O)(=O)C1 (stereo unspecified)	i	2	1.7	-10	0.72	·	0.7
COC(=O)c1ccc(/C=N/N2CCN(Cc3ccc(C)cc3C)CC2)cc1	·	-4	-0.3	-7	·	-0.2	·
CCCCNC(=O)Nc1ccnn1C1CCCCC1	·	·	-3.1	5	0.71	-0.6	1.4

An excerpt from above in order of the ALR inh value, low to high:
SMILES | ALR inh | Beta2AR agonist | LANA-H2B inh | UCH37 inh
CCOC(=O)C1=C(COC(=O)c2ccc(Cl)cc2[N+](=O)[O-])NC(=O)NC1C (stereo unspecified) | -7 | 3 | -3.7 | 0.4
CNc1nc2c(N)ncnc2n1[C@H]1O[C@@H](CO)[C@H](O)[C@@H]1O | -2 | 6 | -2.5 | 2.9
Cc1ccc([C@@H]2[C@@H]3C(=O)N(C)C(=O)[C@@H]3[C@]3(Cc4ccccc4)C(=O)N(Cc4ccccc4)CC(=O)N23)o1 | 0 | -1 | 1.7 | 4.6
CCOC(=O)c1c(-c2ccccc2)oc2ccc(OCC)cc12 | 1 | 0 | -1.5 | -141
CCSc1nnc(SCC(=O)NC2CCCCC2)s1 | 6 | -2 | · | -2.3

More records:
SMILES	FGF22 binding	ALR inh	HNF4A DNA FP	Beta2AR agonist	Ecoli growth	LANA-H2B inh	UCH37 inh
CCCCCn1c(SCCCC)nc2c1c(=O)[nH]c(=O)n2C	·	-10	1.6	2	0.7	-2.5	2.8
C=COC(=O)NC1CCc2cc(OC)c(OC)c(OC)c2-c2ccc(SC)c(=O)cc21 (stereo unspecified)	i	·	0.8	12	·	·	·
COc1ccc(N=Nc2cc(C)c(O)c(CN3CCCCC3)c2)cc1	i	39	3.0	-8	0.64	-5.3	8.0
CSc1nnc(-c2ccc(S(=O)(=O)N3CCCC3)cc2)n1C	·	-6	-0.4	6	0.67	-5.1	3.5
COc1cccc(C2c3c(oc4ccccc4c3=O)C(=O)N2CCCN2CCOCC2)c1OC (stereo unspecified)	i	·	0.5	0	0.67	·	0.3
Oc1ccc(C2C(c3ccccc3)=NN=C(c3ccc(Cl)cc3)N2O)c(O)c1 (stereo unspecified)	i	6	3.6	0	0.71	0.4	7.4
CCc1cc(C(=O)N(C)CC(=O)Nc2c(Cl)cccc2Cl)sc1C	i	-1	-2.8	1	0.66	-2.6	0.1
c1ccc(Oc2cccc3cccnc23)nc1	i	-2	-2.0	-4	0.66	1.0	0.3
Cc1ccc(C)c(NC(=O)CCC(=O)NNC(=O)C(c2ccccc2)c2ccccc2)c1	·	-11	2.9	0	0.74	2.2	2.1
C#CCSc1nnc(-c2ccc(O)cc2)o1	i	27	2.1	3	·	4.8	·
CC1CCCC(NC(=O)CNC(=S)N(Cc2ccccc2)Cc2cccs2)C1C (stereo unspecified)	i	-4	3.8	1	·	-2.6	·
Cc1c(NC(=O)c2ccc(NS(=O)(=O)c3cccc([N+](=O)[O-])c3)cc2)c(=O)n(-c2ccccc2)n1C	i	·	-0.1	-3	0.65	·	0.4
C=CCN1CC(C(=O)N2CCC(Cc3ccc(Cl)cc3)(C(=O)OCC)CC2)CC1=O (stereo unspecified)	i	-2	36*	29	0.74	0.1	0.6
CCc1cc2cc(OC)ccc2nc1SCC(=O)NNC(=O)c1ccco1	i	-11	-2.5	-3	0.69	6.2	-0.1
O=C(Nc1cccc(S(=O)(=O)NCc2ccco2)c1)c1ccc(Cl)cc1	i	0	-0.8	2	0.69	3.0	1.6
N#Cc1ccccc1S(=O)(=O)N1CCN(C(=O)Cc2coc3cc(O)ccc23)CC1	i	99*	-4.9	7	0.63	0.7	0.4
O=C(CCn1c(=S)[nH]c2ccccc2c1=O)NCCc1ccc(Cl)cc1	i	·	-0.6	-4	0.69	2.7	3.4
CC(=O)NN1C(=O)c2ccccc2NC1c1cccc([N+](=O)[O-])c1 (stereo unspecified)	i	-16	5.7	7	0.66	2.0	3.6
CC(C)c1nc2oc3c(=O)[nH]cnc3c2c2c1CCC2	·	·	-0.8	-6	0.69	-0.8	0.5
Cc1ccc(NC(=O)C(C)OC(=O)Cn2cnc3ccccc3c2=O)cc1 (stereo unspecified)	i	32	1.4	4	0.67	-1.3	0.3

4 entries from above, arranged by molecular weight, rising.
SMILES	FGF22 binding	ALR inh	HNF4A DNA FP	Beta2AR agonist	Ecoli growth	LANA-H2B inh	UCH37 inh
C#CCSc1nnc(-c2ccc(O)cc2)o1	i	27	2.1	3	·	4.8	·
CC(C)c1nc2oc3c(=O)[nH]cnc3c2c2c1CCC2	·	·	-0.8	-6	0.69	-0.8	0.5
CCCCCn1c(SCCCC)nc2c1c(=O)[nH]c(=O)n2C	·	-10	1.6	2	0.7	-2.5	2.8
Cc1ccc(C)c(NC(=O)CCC(=O)NNC(=O)C(c2ccccc2)c2ccccc2)c1	·	-11	2.9	0	0.74	2.2	2.1

The listing continues:
SMILES	FGF22 binding	ALR inh	HNF4A DNA FP	Beta2AR agonist	Ecoli growth	LANA-H2B inh	UCH37 inh
CCOc1ccccc1C(=O)Nc1nnc(SCC(=O)Nc2cc(C)on2)s1	i	-7	-0.3	8	0.7	-1.9	-17
O=C1[C@@H]2Cc3c([nH]c4ccccc34)C(c3cccc([N+](=O)[O-])c3)N2C(=O)CN1CCCO (stereo partly specified)	i	-3	-0.1	3	0.67	4.9	3.8
Cc1ccc(C(=O)N(Cc2nc(-c3ccc(C)cc3)no2)C(C)C)cc1	i	11	0.5	0	0.74	1.2	4.0
COC(=O)CN(C)C1CC(=O)N(c2ccc(Cl)cc2)C1=O (stereo unspecified)	·	-26	1.7	-1	0.6	0.6	3.5
CC(C)NC(=O)Nc1cccc2c1O[C@@H](CN(C)S(=O)(=O)c1ccc(F)cc1)[C@@H](C)CN([C@H](C)CO)C2=O	i	-3	-2.2	-4	0.78	-1.0	2.4
CC(=O)C1=C(C)Nc2cc(C(F)(F)F)ccc2S1	·	·	2.3	5	0.72	-3.8	2.7
CN(C)CCNC(=O)Nc1ccc([N+](=O)[O-])cc1	i	-5	0.3	-3	0.66	4.5	7.3
CCCCCNC(=O)CCn1c(=O)oc2ccccc21	·	-8	-2.2	1	0.69	-2.2	-0.9
Cc1ccc(NC(=O)CSc2nnc(COc3ccc(C#N)cc3)n2-c2ccccc2)cc1C	·	·	-1.8	-2	0.71	0.2	-0.6
CCOC(=O)COc1ccccc1-c1ccno1	·	-11	3.0	-2	0.68	3.9	0.8
CN(C)c1nc(N)c2nccnc2n1	i	·	-3.7	1	0.63	·	1.8
